# Screens as filed in PubChem.
# NS1 function inh – qHTS Assay for Inhibitors of Influenza NS1 Protein Function; S. cerevisiae slowed by influenza A NS1, growth recovery by OD600; Potency, µM (doses to about 46.1 µM), inactives show at the highest dose activity, positive = more growth; 270,000 tested, 0.4% active; AID 2326, 2010; also: actives are rising curves; nearly all actives have a fitted effect of over 50% in size
#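 Growth recovery, yeast-based: influenza A NS1 expressed in S. cerevisiae causes slow growth, and suppressors are detected by OD600. The parent strain without NS1 is used as positive control.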
# RE007 growth inh – qHTS Assay for Inhibitors of the HIV-1 protein Vpr; Potency, µM (highest dose often 92.2 µM), inactives show at the top dose activity change, negative = less growth; S. pombe RE007 Vpr strain, BacTiter-Glo ATP luminescence, 24 h; control for the full effect not named in the record; AID 651644, 2012; 360,000 tested, 0.21% active; active = well fitted falling curve with a large enough effect; inconclusive = small, poorly fitted or top-dose-only effect; inactive = no such curve, though single readings can be large or run the other way;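 also: % is scaled to controls: 0 for no effect and ±100 for the full control effect; nearly all actives have a fitted effect of over 50% in size; the assay follows cell death caused by Vpr and the record does not say whether a fall means rescue or toxicity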
#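 Fission yeast strain RE007, carrying one chromosomally integrated HIV-1 vpr copy, was seeded at OD 0.01 in PMG+AL medium with 23 nL pinned compound. After 24 h at 30 °C and 99% humidity, viability was read by BacTiter-Glo luminescence.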
# Marburg entry inh – qHTS for inhibitors of binding or entry into cells for Marburg Virus | Potency, µM (doses to about 37.8 µM), without a hit: at the highest dose activity change, negative = inhibition, usual class: inhibitors | 300,000 tested, 1.8% active | Marburg virus pseudotyped entry inhibition, cell reporter; control for the full effect not named in the record; about a third of the inactives were read at about 46 µM | AID 540276, 2011; active = well fitted inhibition curve with a large enough effect; inconclusive = small, poorly fitted or top-dose-only effect, or effect the other way; inactive = flat fitted curve, though single readings scatter; tested in HEK293 cells; about a fifth of its hits are not listed in these tables; also: % is scaled to controls: 0 for no effect and ±100 for the full control effect; luciferase read-out
# SARS PLpro yeast – qHTS of Yeast-based Assay for SARS-CoV PLP; Potency, µM (doses to about 32.9 µM), for the others: at the highest dose activity, positive = growth rescue; 330,000 tested, 0.19% active; S. cerevisiae expressing SARS-CoV PLpro, growth rescue; control for the full effect not named in the record; also: 0% is about no effect; nearly all actives have a fitted effect of over 55% in size; growth read by luminescence after 48 h
# Cruzain inh Det – qHTS Assay for Promiscuous and Specific Inhibitors of Cruzain (with detergent); 200,000 tested, 0.43% active; Potency, µM, without a hit: max response, negative = inhibition, usual class: inhibitors; purified cruzain, Z-FR-AMC fluorescence, 0.01% Triton; AID 1478, 2009; active = well fitted curve in the direction sought with a large enough effect; inconclusive = small, poorly fitted or top-dose-only effect, or another doubt; inactive = no such curve, though single readings can be large; an effect the other way counts as inactive or inconclusive;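 also: plate controls were neutral wells for no effect and buffer without enzyme for full effect; nearly all actives have a fitted effect of over 40% in size; top concentration of the series not given in the record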
# Target sequence (P25779 123-467 limits assumed): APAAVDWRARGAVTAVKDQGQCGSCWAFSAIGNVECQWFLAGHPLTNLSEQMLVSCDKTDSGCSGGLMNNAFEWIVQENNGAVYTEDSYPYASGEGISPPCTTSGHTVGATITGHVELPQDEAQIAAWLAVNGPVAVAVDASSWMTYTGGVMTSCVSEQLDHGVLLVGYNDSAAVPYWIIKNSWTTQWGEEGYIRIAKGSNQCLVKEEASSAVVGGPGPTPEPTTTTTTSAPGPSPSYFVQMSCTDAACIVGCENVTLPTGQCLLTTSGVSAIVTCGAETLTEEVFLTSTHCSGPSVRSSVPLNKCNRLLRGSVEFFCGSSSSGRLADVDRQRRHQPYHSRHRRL
#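 Purified cruzain (1.5 nM final) was preincubated with compounds for 15 min at room temperature in 100 mM sodium acetate pH 5.5, 5 mM DTT, 0.01% Triton X-100. Reaction started with 2 uM Z-FR-AMC; AMC fluorescence change over 60 s gave activity.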
# 2A StopGo – High Throughput Screening for Foot and Mouth Disease Virus Antivirals. human cells with a luciferase reporter of 2A StopGo recoding; control for the full effect not named in the record. Potency, µM (highest dose often 57.9 µM), for inactives: top-dose signal change, negative = less light. 410,000 tested, 1.2% active; active = well fitted falling curve with a large enough effect; inconclusive = small, poorly fitted or top-dose-only effect; inactive = no such curve, though single readings can be large or run the other way; tested in HEK293T cells; also: % is scaled to controls: 0 for no effect and ±100 for the full control effect; nearly all actives have a fitted effect of over 45% in size; luciferase light after 4 h
# Lassa entry inh – qHTS for Inhibitors of binding or entry into cells for Lassa Virus; Lassa virus pseudotype entry inhibition, cell reporter; control for the full effect not named in the record; Potency, µM (doses to about 37.9 µM), inactives show at the highest dose activity change, negative = inhibition, usual class: inhibitors; 300,000 tested, 1.2% active; AID 540256, 2011; active means well fitted inhibition curve with a large enough effect; inconclusive means small, poorly fitted or top-dose-only effect, or effect the other way; inactive means flat fitted curve, though single readings scatter; tested in HEK293 cells; also: % is scaled to controls: 0 for no effect and ±100 for the full control effect; nearly all actives have a fitted effect of over 50% in size; luciferase read-out
# Cruzain noTriton – qHTS Assay for Promiscuous and Specific Inhibitors of Cruzain (without detergent) | 200,000 tested, 2.3% active | Potency, µM, inactives show max response, negative = inhibition, most hits filed as inhibitors | AID 1476, 2009 | Cruzipain (Trypanosoma cruzi), P25779 | purified cruzain, Z-FR-AMC fluorescence, no detergent; active = well fitted curve in the direction sought with a large enough effect; inconclusive = small, poorly fitted or top-dose-only effect, or another doubt; inactive = no such curve, though single readings can be large; an effect the other way counts as inactive or inconclusive;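 also: plate controls were enzyme without inhibitor for no effect and buffer without enzyme for full effect; nearly all actives have a fitted effect of over 40% in size; top concentration of the series not given in the record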
#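 Detergent-free condition (0.00005% Triton X-100) in acetate buffer pH 5.5 with DTT. 1.5 nM enzyme and compound were pre-mixed 15 min, then 2 uM Z-FR-AMC substrate added; reaction progress from fluorescence change between first and third reads (60 s).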
# * hit, by the source's call; ? = inconclusive; · = not tested or not shown; & = joins results of further samples; [ ] = dose if it differs, or a comment. Unless noted, calls follow the shape of the dose curve; as a rule, active means well fitted rising curve with a large enough effect; inconclusive means small, poorly fitted or top-dose-only effect; inactive means no such curve, though single readings can be large or run the other way. Potency is read from the fitted curve at half-maximal effect.
SMILES,NS1 function inh,RE007 growth inh,Marburg entry inh,SARS PLpro yeast,Cruzain inh Det,2A StopGo,Lassa entry inh,Cruzain noTriton
Cc1ccc(N2C(=O)C3CCC(C)(C2=O)C3(C)C)cc1 (stereo not drawn),0%,1%,-9%,0%,·,5%,-17%,·
COc1ccc2c(c1)c(=O)c(C(=O)c1ccc(C)c(C)c1)cn2CC(=O)Nc1ccc2c(c1)OCCO2,·,·,2%[46.1 µM],·,-0.8%,-4%,1%[46.1 µM],6%
O=C(CCc1ccccc1)NC1CCS(=O)(=O)C1 (stereo not drawn),·,-7%,25%,0%,·,4%,1%,·
Cc1ccc(S(=O)(=O)NCCn2nc(C)cc2C)cc1,14%,18%,17%[46.1 µM],3%,·,13%,?,·
N#CCn1c(C2CCCCC2)nc2ccccc2c1=O,-4%,6%,21%,-11%,-0.8%,1%,10%,5%
Cc1cnc(NC(=O)CN2CCN(c3ccccn3)CC2)s1,4%,-11%,4%,-2%,-1.5%,-3%,2%,3%
N#Cc1ccc(OCC(=O)N2CCN(Cc3ccc4c(c3)OCO4)CC2)cc1,·,-2%,-2%,-1%,·,0%,-10%,·
c1ccc(SCCCCN2CCOCC2)cc1,-17%,3%,·,-1%,·,19%,·,·
Cc1cccc(NC(=O)c2oc3ccccc3c2NC(=O)Cc2coc3cc(C)cc(C)c23)c1,·,·,-18%[46.1 µM],·,-0.5%,-1%,-17%[46.1 µM],-10%
CCCC(=Nc1ccccc1OC)C1=C(O)CC(c2ccccc2)CC1=O (stereo not drawn),-54%,?,?,-62%,-3.5%,-20%,6%,-9%
CCNC(=S)NNC(=O)c1csc2c1CCCC2,-3%,0%,-20%,-6%,3.3%,38%[activator],-1%,2%
CN(C)c1cccc(C(=O)NNC(=S)NC2CCCC2)c1,-8%,13%,·,0%,·,33%[activator],·,·
COc1cc(-c2cc(C(=O)Nc3cccc(S(=O)(=O)N(C)C)c3)c3ccccc3n2)cc(OC)c1OC,10%,-17%,-4%[46.1 µM],3%,·,-30%,-16%,·
COc1cc(/C=C(/C(=O)O)c2ccc(-c3ccccc3)cc2)cc(OC)c1OC,14%,21%,?,0%,·,26%,-10%[46.1 µM],·
COC(=O)C(NC(C)=O)(Nc1nc2c(C)cc(C)cc2s1)C(F)(F)F (stereo not drawn),8%,-2%,-25%,1%[6.58 µM],0.8%,-17%,?,-4%
CNC(=O)CCC(=O)Nc1ccc(C(=O)OC)cc1,2%,0%,?,3%,1.5%,16%,3%,-9%
O=C(NCc1cccnc1)c1cccc(C(F)(F)F)c1,2%,7%,?,2%,-3.5%,-14%,17%[14.3 µM],1%
COc1ccc(-c2nc3ccccc3s2)cc1NC(=O)c1ccc(C#N)cc1F,·,·,22%[46.1 µM],·,-1.4%,14%,12%[46.1 µM],1%
COC(CNC(=O)CCCn1nnnc1CN1CCOCC1)c1cccs1 (stereo not drawn),-7%,-2%,6%[46.1 µM],-6%,·,3%,-4%[46.1 µM],·
CC1CCN(C(=O)CN2c3ccc(Br)cc3-c3ccccc3S2(=O)=O)CC1,·,·,?,·,-5.5%,0%,27%[46.1 µM],-9%
O=C(Nc1cccc(-c2cccc(F)c2)c1)C1CCN(C2CCOCC2)CC1,9%,-7%,·,-3%,·,-14%,·,·
CCCC(=O)Nc1nc(-c2ccc3c(c2)CCN3S(C)(=O)=O)cs1,27%,11%,-17%,-10%,-0.9%,·,-2%,-10%
O=C(OCc1ccc([N+](=O)[O-])cc1)c1ccc2ccccc2n1,7%,93%,6%[46.1 µM],-1%,·,-10%,10%,·
Cc1nc(SCC(=O)OC(C)(C)C)c2c3c(sc2n1)CCCC3,·,·,·,·,0.1%,-6%,-3%[46.1 µM],-4%
O=C(O)c1cc(N2C(=O)CCC2=O)ccc1NCc1cccnc1,7%,4%,·,0%,·,-1%,·,·
CC1(C)Cc2noc(N)c2C(C)(C)N1OC(=O)c1scc2c1OCCO2,0%,3%,-2%,6%,4.1%,-18%,3%,-3%
O=C(Cn1[nH]c(=O)c2ccccc2c1=O)Nc1cccc(-c2nnc3n2CCCCC3)c1,-5%,-5%,-16%,3%,-3.3%,-14%,?,-13%
COC(=O)c1sccc1NC(=O)CN(C)NS(=O)(=O)c1ccc(Cl)cc1,-36%,-11%,-11%,-2%,4.5%,-11%,-24%,-2%
Cc1ccc(S(=O)(=O)CC(=O)NC2CC2)cc1,2%,0%,-2%,-10%,-4.0%,5%,5%,-7%
CCN(c1ccccc1)S(=O)(=O)c1ccc(C(=O)Nc2ncccc2O)cc1,11%,-11%,1%,4%,·,-27%,-27%,·
N#CC(C#SN)=C1CCCCC1,-18%,-2%,?,-5%,2.6%,-6%,15%,-1%
CCOc1c(Cl)cc(CNCCc2c[nH]c3ccccc23)cc1OC,3%,1%,·,-1%,·,-19%,·,·
COCC(=O)Nc1cccc(-c2ccc3nncn3n2)c1,-12%,-4%,·,6%,·,1%,·,·
CCOC(=O)N1CC=C2C(C#N)=C(N)C(C#N)(C#N)[C@H](c3ccccc3OCC)[C@H]2C1,-50%,2%,?,5%,5.6%,-13%,-20%[14.3 µM],2%
CSc1ccc(C2c3[nH]c4ccccc4c3CCN2C(=O)CCc2ccccc2)cc1 (stereo not drawn),·,·,·,·,3.3%,2%,2.5µM*,?
COC(=O)C(C(=O)OC)c1ccc(-n2cccc2)cc1,-2%,14%,?,-1%,·,-15%,-19%[46.1 µM],·
S=C(NCc1ccco1)Nc1cc(-c2ccccc2)[nH]n1,-42%,0%,3%[46.1 µM],-5%,·,-3%,-8%[46.1 µM],·
CCCc1nc2ccc(NC(C)=O)cc2c(=O)n1Cc1cccc(Cl)c1,-3%,11%,?,0%,·,5%,-23%[46.1 µM],·
Cc1ccccc1C(=O)N1CCC(C(=O)O)CC1,-1%,3%,5%,13%,4.4%,-3%,8%,9%
COc1ccc(NC(=O)COC(=O)C2CCN(S(=O)(=O)c3cccs3)CC2)cc1OC,·,-14%,14%[46.1 µM],-16%,·,-12%,5%[46.1 µM],·
CCOC(=O)c1ccc(CNCc2ccc(Br)cc2)cc1,-8%,-14%,?,5%,0.9%,9%,7%,-2%
COc1ccc(CCN2CC(C(=O)N(C)CCc3cn[nH]c3)CCC2=O)cc1 (stereo not drawn),11%,-3%,·,1%,·,0%,·,·
CN1CCN(C2=C(Cl)C(=O)N(c3cccc(Cl)c3)C2=O)CC1,8%,2%,?,-7%,-26%,56%[activator],0%,?
CCSC1=C(C#N)C(c2ccccc2OC)CC(=O)N1 (stereo not drawn),-2%,1%,·,4%,-3.8%,-10%,·,6%
CN(C)/C=C1/N=C(c2ccccc2)OC1=O,2%,-4%,?,1%,-6.9%,12%,?,-17%
Cc1ccc(-n2c(/C=C/c3ccc4c(c3)OCO4)nc3ccccc3c2=O)cc1,4%,·,?,7%,-5.9%,·,10%,?
Cc1nn2cc(-c3ccc(OC(C)C)cc3)nc2s1,·,·,·,·,3.5%,-50%,·,26%
CC(C)[C@H](NS(=O)(=O)c1ccc2c(c1)OCCO2)C(=O)OCC(=O)Nc1cc(Cl)ccc1Cl,-16%,-12%,-1%,-14%,-12%,?,-3%,6%
C/C(=N\NC(=O)c1c(Cl)cnn1C)c1cccnc1,-1%,-2%,·,-4%,·,24%,·,·
OC(Cn1cncn1)(c1ccccc1)c1ccccc1,-139%,-1%,3%[46.1 µM],-17%,5.8%,-9%,6%,2%
Cn1c(N)c(C(=O)c2ccc(F)cc2F)c(=O)n(C)c1=O,3%,0%,?,-23%,-2.6%,-23%,?,12%
CCC1Oc2ccccc2N(CC(=O)NC2CCCC2)C1=O (stereo not drawn),18%,-1%,11%[46.1 µM],1%,·,-10%,27%[46.1 µM],·
N#Cc1nc(COc2ccc(Br)cc2)oc1NCCCn1ccnc1,-3%,-18%,-20%,4%,2.2%,0%,-1%,-5%
CC(C)CCNC(=O)C1CCCN1C(=O)NC1CCCCC1 (stereo not drawn),2%,-16%,27%,-1%,-1.8%,14%,19%,-7%
COc1ccc(Nc2nccc3c2nnn3C)cc1,1%,-19%,?,-18%,-3.0%,24%,-5%,-5%
O=C(CN1C(=O)S/C(=C\c2ccc(Cl)cc2)C1=O)NCCCn1ccnc1,16%,-9%,·,1%,·,-1%,·,·
O=C1C2C3CC(C(Br)C3Br)C2C(=O)N1c1ccccn1 (stereo not drawn),-3%,11%,3%,-2%,3.2%,9%,?,-14%
CCCc1cc(C(=O)Nc2cc(C)nn2-c2ccccc2)no1,-12%,-19%,·,-2%,1.9%,-16%,·,-4%
O=C(CSCc1cnn(-c2ccccc2)c1-n1cccc1)NCc1ccc(F)cc1,·,·,-2%[46.1 µM],·,-7.0%,-24%,4%[46.1 µM],-13%
NS(=O)(=O)c1cccc(NC(=O)CSc2nc3ccc(Cl)cc3[nH]2)c1,·,-5%,?,1%,·,-5%,-7%,·
# (cont.)
SMILES,NS1 function inh,RE007 growth inh,Marburg entry inh,SARS PLpro yeast,Cruzain inh Det,2A StopGo,Lassa entry inh,Cruzain noTriton
Cc1nc(NC(C)c2ccccc2)c2oc3ccccc3c2n1 (stereo not drawn),-151%,-13%,?,-26%,-3.0%,13µM*,?,-3%
COC(=O)c1c(NC(=O)c2c(OC)cccc2OC)sc2c1C(C(=O)OC)CC2 (stereo not drawn),-6%,1%,·,-1%,·,-9%,·,·
CCOC(=O)CC(NC(=O)c1ccco1)c1ccc(OC)cc1 (stereo not drawn),-10%,10%,-9%,?,8.8%,-18%,-8%,5%
COc1ccc(NC(=O)c2ccc(NC(=O)CCS(=O)(=O)c3cccs3)cc2)cc1OC,·,·,-12%[46.1 µM],·,-4.7%,0%,2%[46.1 µM],?
COc1ccc(/C=N/NC(=O)c2cccs2)c2ccccc12,·,13%,-3%,·,·,11%,?,·
O=C(NCc1ccc2c(c1)OCO2)C1CCC(CNS(=O)(=O)c2ccccc2)CC1 (stereo not drawn),-22%,-2%,12%&12%,-1%,-0.9%,-15%,-1%,7%
